# HTT prom inh = inhibitors of huntingtin promoter activity. 0.93% of 48,000 active. HEK293 HTT promoter firefly luciferase reporter (activity 0% = vehicle and -100% = no light), 24 h. Potency, µM (titrated, usually from 57.5 µM), for inactives: at the top dose activity change, negative = inhibition, most hits filed as inhibitors. AID 1508623; active = well fitted inhibition curve with a large enough effect; inconclusive = small, poorly fitted or top-dose-only effect; inactive = no such curve, though single readings can be large or run the other way; also: nearly all actives have a fitted effect of over 50% in size
#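 HEK293 cells carrying firefly luciferase reporters were seeded at 2,500 per well in Opti-MEM and cultured for 24 h. They were then treated with compounds at up to 57.5 uM final for 24 h at 37 degrees C before Dual-Glo luminescence readout.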
# PMP22 txn = PMP22 gene transcription modulation | Potency, µM (doses to about 57.5 µM), for inactives: at the highest dose activity change, negative = inhibition, actives largely listed as inhibitors | 2% of 43,000 active | AID 1508649 | S16 Pmp22-F2sN Schwann cells (luciferase reporters placed in the Pmp22 gene), FLuc/NLuc coincidence luminescence, 24 h; active = clear falling dose curves in both reporters; inconclusive = both reporters move, but less clearly or upward; inactive = either reporter flat; the % is the NLuc reporter signal; also: % is scaled to controls: 0 for no effect and ±100 for the full control effect; some results filed as inactive show a strong effect at the top dose
#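 Luminescent read-out of sequential FLuc and NLuc signals from a reporter embedded in the Pmp22 3' UTR of S16 Schwann cells, taken after 24 h compound exposure at 37C; compounds reducing both signals score as inhibitors of expression.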
# Starred values were filed as active, the others as inactive; ? = inconclusive; · = not tested or not shown; & = joins results of further samples; [ ] = dose if it differs, or a comment. Potency is read from the fitted curve at half-maximal effect.
SMILES,HTT prom inh,PMP22 txn
Cc1cccc(-c2noc(CN(C(=O)c3ccccc3Cl)C(C)C)n2)c1,-20%,?
Cc1ccc(NC(=O)CSc2nc3ncccc3[nH]2)cc1F,6%,-2%
COc1cccc(NC(=O)N(Cc2cn(C)c3ccccc23)C2CCCCC2)c1,?,10µM*
CCCNC(=O)C1CCC(Cn2c(=O)c3sccc3n(Cc3cccc(OC)c3)c2=O)CC1 (centres undefined),-12%,-32%
COC(=O)c1cc2sccc2n1Cc1ccccc1,?,?
N#C/C(=C\c1ccc(-c2ccc(Cl)c(C(=O)O)c2)o1)c1nc2ccccc2[nH]1,8%,-16%
CCc1ccccc1-n1c(SCC(=O)Nc2ccc(C)cc2)nc2n[nH]c(C)c2c1=N,?,?
Cc1cccc(-n2c(=O)c3c(c4cc(C)ccc4n3C)n(CC(=O)Nc3ccc(C)cc3C)c2=O)c1,-16%,-1%
Cc1nnc(N2CCN(c3cccc(C(F)(F)F)c3)CC2)c2c1nnn2Cc1ccccc1,?,?
COc1ccc(NC(=O)Cn2c(=O)n(CCc3ccccc3)c(=O)c3sc4ccccc4c32)cc1,15%,?
COc1ccc(CNc2nc(-c3ccco3)nn2C(=O)c2ccccc2Cl)cc1,58%[activator],0%
CCCNC(=O)c1c(NC(=O)c2ccc(C)cc2)sc2c1CCCCC2,-1%,10%
O=S(=O)(NCCc1csc(-c2cccc(F)c2)n1)c1cc(F)ccc1F,-32%,10%
Cc1ccc(C)c(-c2nnc(NC(=O)c3ccc4c(c3)OCCO4)o2)c1,-28%,?
COc1ccc(-c2noc(N3CCC(C(=O)Nc4ccc(OC)c(OC)c4)CC3)n2)cc1,?,?
Cc1ccc(NC(=O)NCc2cccn2Cc2ccccc2)cc1F,-10%,-1%
CCCCOC(=O)CSc1nnc(-c2ccccc2)o1,-5%,-2%
CCC1CN(C(=O)N2CCC(C(=O)O)CC2)c2cc(C)ccc2O1 (centres undefined),-12%,16%
Oc1ccc(-c2ccc(-c3cc(Nc4cccc(CNC5CC5)c4)n[nH]3)cc2)c(O)c1,?,·
Cc1ccc(C(NC(=O)Cc2cccs2)C(=O)Nc2ccc(C(C)C)cc2)cc1 (centres undefined),-6%,-21%
CC(C)CNc1ncnc2onc(-c3ccc(Cl)cc3)c12,-17%,?
NC(=O)c1ccc(I)c([N+](=O)[O-])c1,26%,·
COc1ccc(N2CCN(C(CNC(=O)C(=O)NCc3ccc(F)cc3)c3cccnc3)CC2)cc1 (centres undefined),?,-16%
Cc1cccc(NC(=O)C2CCCN(S(=O)(=O)c3ccc(Br)s3)C2)c1 (centres undefined),15%,-31%
O=S(=O)(NCCS(=O)(=O)N1CCN(c2ccccc2F)CC1)c1ccc(Cl)cc1,?,4%
# The listing continues.
SMILES,HTT prom inh,PMP22 txn
Cc1ccc(CN2CCC(CNC(=O)c3cnn(-c4ccccc4)c3C3CCN(C(=O)OC(C)(C)C)CC3)CC2)cc1,-2%,?
COc1cccc(C(=O)NCCc2csc(-c3ccc(Cl)cc3)n2)c1,?,?
Cn1c(=O)[nH]c(=O)c2c1nc(N1CCOCC1)n2Cc1ccccc1,-5%,-10%
Cc1cccc2sc(N(Cc3cccnc3)C(=O)CCS(=O)(=O)c3ccccc3)nc12,36%,?
Cc1nn2c(=O)cc(COC(=O)c3ccccc3NC(=O)c3cccs3)nc2s1,-22%,7.1µM*
Cc1cc2c(n1-c1ccc(C(=O)NCCc3ccc(Cl)cc3)cc1)CCCC2,15%,?
Cc1nn2c(C)c(C(=O)N3CCN(c4ccccc4)CC3)cnc2c1-c1ccccc1,-19%,3%
CCOC(=O)c1cccnc1SCC(=O)Nc1ccc(C)cc1C,-20%,-15%
Cc1cc(C)c(Cn2c3ccccc3c3cnn(CC(=O)NCc4ccccn4)c(=O)c32)c(C)c1,?,?
COc1cccc(-c2nc(S(=O)(=O)c3ccc(C)cc3)c(NCc3ccccc3)o2)c1,?,?
Cc1cccc(N2CCN(C(=O)c3c(C)oc4nc(C)nc(N5CCCC5)c34)CC2C)c1 (centres undefined),-22%,8%
Cc1ccn2c(=O)cc(COc3cccc(NC(=O)Nc4cccc(Cl)c4C)c3)nc2c1,-8%,?
CCOc1ccc(C(=O)c2oc3ccccc3c2NC(=O)c2cc(-c3ccc(C)cc3)on2)cc1,-4%,1%
CCCCc1ccc2nc(NC(=O)OC)[nH]c2c1,3%&2%,·
CCN1CCOC(=O)C1CC(=O)Nc1cc(Cl)ccc1C (centres undefined),-1%,11µM*
CCc1cnn2c(NCc3ccc[n+]([O-])c3)cc(N3CCCC[C@@H]3CCO)nc12,?,·
O=C(c1cnc(N2CCCCC2)c2ccccc12)N1CCN(c2ccc(Cl)cc2)CC1,?,?
CCOc1ccc(C(=O)NCCc2csc(-c3cccnc3)n2)cc1,-8%,-15%
COc1cc(-c2nnc(SCC(=O)N(C)C3CCCCC3)o2)cc(OC)c1OC,-20%,?
CCN(CC)CCCC(C)Nc1nc(C)cc(Nc2ccc3nc(C)cc(N)c3c2)n1 (centres undefined),13%,·
CC1=C(C(=O)Nc2ccc(Cl)cc2)C(c2ccccc2)n2ncc(C(=O)Nc3ccccc3)c2N1 (centres undefined),25µM*,?
Cc1ccc(C)c(Cn2c(C3CC(=O)N(c4ccccc4C)C3)nc3ccccc32)c1 (centres undefined),?,?
O=C(CN1C(=O)COc2ccc(S(=O)(=O)N3CCCC3)cc21)N1CCN(c2ccccc2F)CC1,-9%,-30%
CCCCOc1ccc(CNC(=O)c2ccc(NC(=O)N3CCSc4ncccc43)cc2)cc1,?,-13%
CN1CCN(C(CNC(=O)C(=O)Nc2ccccc2C#N)c2ccc3c(c2)OCO3)CC1 (centres undefined),-5%,-3%

# Looked up by structure from the entries so far:
SMILES,HTT prom inh,PMP22 txn
O=S(=O)(NCCc1csc(-c2cccc(F)c2)n1)c1cc(F)ccc1F,-32%,10%
Cc1ccc(C)c(-c2nnc(NC(=O)c3ccc4c(c3)OCCO4)o2)c1,-28%,?
Cc1cc(C)c(Cn2c3ccccc3c3cnn(CC(=O)NCc4ccccn4)c(=O)c32)c(C)c1,?,?
Cc1cccc(NC(=O)C2CCCN(S(=O)(=O)c3ccc(Br)s3)C2)c1 (centres undefined),15%,-31%
CCCNC(=O)c1c(NC(=O)c2ccc(C)cc2)sc2c1CCCCC2,-1%,10%
CCCCOc1ccc(CNC(=O)c2ccc(NC(=O)N3CCSc4ncccc43)cc2)cc1,?,-13%

# (list continues)
SMILES,HTT prom inh,PMP22 txn
O=C(CSc1nc(-c2ccc(F)cc2)[nH]c1-c1ccc(F)cc1)Nc1ccc2c(c1)OCO2,?,?
CCOc1ccccc1CNC(=O)CCCN1C(=O)CCn2nc(-c3cccn3C)cc21,0%,-8%
CC1(C)CC(=O)c2cc(-c3nc(-c4ccc(F)cc4)cs3)c(=O)[nH]c2C1,2%,-1%
CCOc1cc(CNC(=O)c2sc3ncnc(N(C)C4CCCCC4)c3c2C)ccc1OC,?,?
CSc1nc2c([nH]c3ccccc32)c(=O)n1-c1ccc(C)cc1,?,-16%
O=C(CSc1nc2c([nH]c3ccccc32)c(=O)n1-c1cccc(Cl)c1)N1CCCC1,-15%,-8%
COc1c(Cl)cc(C(=O)Nc2cc(-c3nc4ccccc4[nH]3)ccc2C)cc1Cl,?,?
COc1cccc(NC(=O)CN(C)S(=O)(=O)c2cccs2)c1,29%,12%
Cc1ccc(S(=O)(=O)c2nnn3c2nc(NCc2cccs2)c2sccc23)cc1,-11%,-16%
COCCNC(=O)C1=CC(c2ccc3c(c2)OCO3)=NS(=O)(=O)N1C,-15%,-2%
COc1ccc(C2CC(=O)N(Cc3cccc(F)c3)c3ccccc3S2)cc1 (centres undefined),?,?
COc1ccc2c(Sc3ccccc3)c(C(=O)N3CCC(C)CC3)[nH]c2c1,8%,-20%
Cc1nnc(N2CCC(C(=O)NC3CCCCC3)CC2)c2nn(-c3ccccc3)c(C)c12,-4%,-11%
COc1ccc2c(Sc3ccc(C)cc3)c(C(=O)NCC(C)c3ccccc3)[nH]c2c1 (centres undefined),-5%,?
COc1ccc(-c2n[nH]c3c2cnc2cc(OC)c(OC)cc23)cc1,8%,-158%
O=C(Nc1ccc(Cl)cc1)c1ccc2c(c1)N(Cc1ccccc1)CCS2,-22%,-24%
Cc1ccc2oc(=O)c3cnn(CC(=O)N4CCN(c5ccccc5F)CC4)c3c2c1,2%,?
COc1ccc(NC(=O)c2ccc3snnc3c2)cc1OC,10%,-1%
CCCCCCCC(=O)OCC(COC(=O)CCCCCCC)OC(=O)CCCCCCC,-4%,·
COc1cccc2c1C(=O)c1c(O)c3c(c(O)c1C2=O)C[C@@](O)(C(=O)CO)C[C@@H]3O[C@H]1C[C@H](N)[C@H](O)[C@H](C)O1,-28%,·
Cc1ccc(C)c(Cn2cc(S(=O)(=O)c3ccc(Cl)cc3)c(=O)c3cc(F)ccc32)c1,-9%,-2%
O=C(Cc1c(C(=O)O)[nH]c2ccccc12)Nc1cccc(C(F)(F)F)c1,-18%,-6%
COc1ccccc1CNS(=O)(=O)c1ccc2[nH]c3c(c2c1)CCCCC3,?,-36%
Cc1nnc(N2CCC(C(=O)NC(C)C)CC2)c2nn(-c3ccccc3)c(C)c12,-6%,?
CCOc1ccc(OC(=O)c2cn(-c3cccc(OC)c3)c(=O)c3ccccc23)cc1,-17%,-19%
# Additional structures follow.
SMILES,HTT prom inh,PMP22 txn
CC(=O)c1ccc(NC(=O)CSc2ccc(-c3cccs3)nn2)cc1,14%,1%
CCc1ccccc1NC(=O)C1(S(=O)(=O)c2ccc(Cl)cc2)CC1,-11%,15%
CCOCCCNC(=O)c1c(NC(=O)c2cc(=O)c3cc(C)c(C)cc3o2)sc2c1CCC2,-15%,0%
Cc1ccc(NC(=O)c2oc3ccc(S(=O)(=O)N4CCCCCC4)cc3c2C)cc1Cl,-7%,-36%
COc1ccc(Nc2ncnc3sc4c(c23)CCCC4)cc1,-17%,?
Cc1ccc2onc(CNC(=O)N3CCN(c4cccc(C(F)(F)F)c4)CC3)c2c1,?,-6%
O=c1[nH]cc(F)c(=O)[nH]1,-15%&-2%,·
COc1ccc(NC(=O)C2=C(C)Nc3nc(SCc4ccc(C)cc4C)nn3C2c2cccc(OC)c2OC)cc1 (centres undefined),0%,-3%
CCc1ccccc1NC(=O)CN(c1cc(C(F)(F)F)ccc1Cl)S(=O)(=O)c1ccccc1,?,1%
Cc1ccc(CCNC(=O)CN2CCN(Cc3ccc(Cl)cc3)C2=O)cc1,-15%,?
O=C(Cn1c(=O)c2ccccc2n(CC(=O)Nc2ccc(Cl)cc2)c1=O)NCCc1ccccc1,?,-5%
O=C(NCCN1CCN(c2cccc(Cl)c2)CC1)Nc1ccccc1,-18%,?
O=C(c1cnn(-c2ccc(F)cc2)c1-n1cccc1)N1CCN(c2ccc(F)cc2)CC1,-26%,-29%
COc1ccc(Nc2cc(C(=O)NCCCN(C)Cc3ccccc3)c3ccccc3n2)c(OC)c1,?,-5%
COc1cccc(CNC(=O)Cn2c(=O)ccc3cc(S(=O)(=O)N4CCCC4)ccc32)c1,0%,0%
Cc1ccc2c(=O)cc(C(=O)N(Cc3ccccc3Cl)C3CCS(=O)(=O)C3)oc2c1 (centres undefined),19%,-44%
CCOc1ccc(NC(=O)CN(c2ccc(C)cc2)S(=O)(=O)c2cccs2)cc1,-6%,-4%
CC(C)Sc1ncc(Cl)c(C(=O)N(Cc2ccc(N(C)C)cc2)C2CCS(=O)(=O)C2)n1 (centres undefined),1%,-8%
COC(=O)c1cnc(N2CCN(c3ccccc3OC)CC2)c2ccccc12,-3%,-59%
Cc1ccc(-c2nnc(SCC(=O)N3CCCc4ccccc43)o2)cc1,-8%,?
COc1ccc(CNC(=O)c2cnc3cc(C)ccn3c2=O)cc1,1%,5%
CC(C)CCNC(=O)C(Cc1ccccc1)NS(=O)(=O)c1ccc2c(c1)c(=O)n(C)c(=O)n2C (centres undefined),-18%,-2%
COC(=O)c1sc2ncccc2c1-n1c(C)ccc1C,10%,4%
CC(C)Oc1ccc(C(=O)N(Cc2ccco2)c2ccccn2)cc1,23%,-2%
O=C(c1ccco1)N1CCN(c2nc3c(F)cc(F)cc3s2)CC1,21%,-1%
N#Cc1nc(/C=C/c2ccc(F)cc2)oc1NCc1ccc(F)cc1,5%,-3%
O=C(CSCc1ccc(F)cc1)NCc1ccc(F)cc1,-3%,-13%
CCc1ccc(OC(C)C(=O)Nc2c(C(=O)c3ccccc3)oc3ccccc23)cc1 (centres undefined),-18%,-5%
Cc1cccc(N(CC(=O)NCCSc2ccc(Cl)cc2)S(C)(=O)=O)c1C,?,?
CCN(CC)C(=O)Cn1ncc2c([nH]c3ccccc32)c1=O,-1%,-16%

# Whole records from above. Values in the order: HTT prom inh | PMP22 txn
# Results for CCOC(=O)c1cccnc1SCC(=O)Nc1ccc(C)cc1C = -20% | -15%
# Results for COc1ccccc1CNS(=O)(=O)c1ccc2[nH]c3c(c2c1)CCCCC3 = ? | -36%
# Results for COc1cccc(-c2nc(S(=O)(=O)c3ccc(C)cc3)c(NCc3ccccc3)o2)c1 = ? | ?
# Results for CCOc1ccc(C(=O)NCCc2csc(-c3cccnc3)n2)cc1 = -8% | -15%
# Results for O=C(c1cnc(N2CCCCC2)c2ccccc12)N1CCN(c2ccc(Cl)cc2)CC1 = ? | ?

# Screening data deposited in PubChem by National Center for Advancing Translational Sciences (NCATS).
